Source: PubChem BioAssay
Vaccinia stage – blocks a specific stage of Vaccinia orthopoxvirus infection | actives 0.01% (n = 89,000) | Vaccinia-infected cells, mCherry/Venus stage reporter fluorescence; stronger effect = lower value; some inactives read as strong as hits | AID 1053133 | activity change (mCherry), % (no concentration beside the values);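 active means mCherry past -33% and 40 or more points under the early reporter, replicates agreeing; inconclusive means past -33% without that gap or agreement; tested in A549 cells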;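 further: scaled between vehicle wells and reference inhibitor wells; 23 nL library stock went into each well; one replicate is shown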
Vaccinia stage Venus – also measured in Vaccinia stage; calls as there; activity change (Venus), %; measured here: Venus reporter, other viral stage;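 negative = less Venus signal; first of two replicates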
An asterisk follows results filed as active; ? = inconclusive; · = not tested or not shown; & = joins results of further samples. These rows are one share of the data (hit frequency here may not be typical).

SMILES	Vaccinia stage	Vaccinia stage Venus
COc1ccc(NC(=O)Nc2cccc3c2O[C@@H](CN(C)Cc2ccc(Oc4ccccc4)cc2)[C@H](C)CN([C@@H](C)CO)C3=O)cc1	-5	-3
C[C@@H]1CN([C@@H](C)CO)C(=O)c2cc(NS(=O)(=O)c3ccc(F)cc3)ccc2O[C@@H](C)CCCCO[C@H]1CN(C)S(=O)(=O)c1cccs1	-33	-20
CNC[C@H]1Oc2c(NC(=O)Nc3ccc4c(c3)OCO4)cccc2C(=O)N([C@@H](C)CO)C[C@@H]1C	7	10
CO[C@@H]1CN(C)C(=O)c2ccc(NS(C)(=O)=O)cc2OC[C@H](C)NC[C@H]1C	6	6
CC(C)NC(=O)Nc1ccc2c(c1)CC(=O)N([C@H](C)CO)C[C@@H](C)[C@@H](CN(C)C)O2	13	23
C[C@H]1CN([C@@H](C)CO)C(=O)c2cc(NC(=O)c3ccncc3)ccc2O[C@H]1CN(C)S(=O)(=O)c1ccc(F)cc1	9	6
O=C(Nc1cc(F)ccc1F)N[C@H]1C=C[C@@H](CC(=O)N2CCc3ccccc3C2)O[C@@H]1CO	-15	-2
O=C(C[C@H]1CC[C@@H]2[C@H](COC[C@@H](O)CN2CCC(F)(F)F)O1)NCc1ccc2c(c1)OCO2	17	7
COCC(=O)Nc1ccc2c(c1)[C@@H]1C[C@H](CC(=O)NCCc3ccccc3)O[C@H](CO)[C@@H]1O2	7	12
CCN1[C@@H]2c3ccc(C4=CCCC4)c(=O)n3C[C@H]1[C@H](CO)[C@H]2C(=O)N[C@@H](C)c1ccccc1	3	7
C[C@@H]1CN([C@@H](C)CO)C(=O)CCCn2cc(nn2)CO[C@H]1CN(C)C(=O)C1CCCCC1	13	9
C[C@@H]1CCCCO[C@@H](CN(C)Cc2ccccc2)[C@@H](C)CN([C@H](C)CO)C(=O)c2cc(NC(=O)CCC(F)(F)F)ccc2O1	-12	-10
CCC(=O)N[C@H]1C=C[C@H](CC(=O)NCc2ccccc2F)O[C@@H]1CO	3	0
COCC(=O)N(C)C[C@H]1Oc2cc(C#CC(C)(C)O)ccc2S(=O)(=O)N([C@H](C)CO)C[C@@H]1C	-10	-8
C[C@@H]1CCCCO[C@@H](CN(C)S(=O)(=O)c2ccccc2)[C@@H](C)CN([C@H](C)CO)C(=O)c2cc(NC(=O)Nc3ccc4c(c3)OCO4)ccc2O1	44	19
Cc1cc(C(=O)Nc2cccc3c2O[C@H](CN(C)S(=O)(=O)c2ccccc2)[C@@H](C)CN([C@@H](C)CO)C3=O)n(C)n1	14	12
C[C@@H]1CN([C@@H](C)CO)C(=O)c2cc(NS(C)(=O)=O)ccc2O[C@@H]1CN(C)Cc1ccncc1	10	5
CCNC(=O)C[C@H]1CC[C@@H]2[C@H](COc3ccc(NC(=O)Nc4ccccc4OC)cc3C(=O)N2C)O1	0	-5
C[C@H]1CN([C@@H](C)CO)C(=O)Cc2cc(NC(=O)CCCCCC(=O)Nc3ccccc3N)ccc2O[C@@H]1CN(C)S(=O)(=O)c1ccccc1	12	4
O=C(Nc1ccc(C(F)(F)F)cc1)Nc1ccc2c(c1)[C@@H]1C[C@H](CC(=O)N3CCc4ccccc4C3)O[C@@H](CO)[C@@H]1O2	?	·
Cc1ccc(S(=O)(=O)N[C@H]2CC[C@H](CCNC(=O)C3CCCC3)O[C@H]2CO)cc1	-5	4
C[C@@H]1CN([C@@H](C)CO)C(=O)c2cc(NC(=O)Cn3cnnn3)ccc2O[C@@H]1CN(C)C(=O)Nc1ccc(F)cc1	24	10
COc1ccc2c3c([nH]c2c1)[C@@H](CO)N(Cc1nccs1)CC31CCN(Cc2cncnc2)CC1	3	7
C[C@H](CO)N1C[C@H](C)[C@@H](CN(C)C)Oc2ccc(NC(=O)CCN3CCOCC3)cc2C1=O	10	-1
C[C@@H]1CN([C@@H](C)CO)C(=O)Cc2cc(NC(=O)Nc3ccc4c(c3)OCO4)ccc2O[C@@H]1CN(C)C(=O)Nc1ccc(C(F)(F)F)cc1	5	3
C[C@@H]1CCCCO[C@@H](CN(C)Cc2ccccc2)[C@@H](C)CN([C@@H](C)CO)C(=O)c2cc(NS(=O)(=O)c3ccc(Cl)cc3)ccc2O1	?	·
Cc1noc(C)c1NC(=O)Nc1cccc2c1O[C@@H](CN(C)CC1CCCCC1)[C@@H](C)CN([C@H](C)CO)C2=O	4	10
C[C@H](NC(=O)C[C@H]1CC[C@@H]2[C@H](COC[C@@H](O)CN2C(=O)Nc2cccc(F)c2)O1)c1ccccc1	-5	-5
C[C@H]1CN([C@@H](C)CO)C(=O)c2cccc(NC(=O)Nc3ccc4c(c3)OCO4)c2O[C@@H]1CN(C)S(=O)(=O)c1ccc(F)cc1	4	1
C[C@H]1CN([C@@H](C)CO)C(=O)c2cccc(N(C)C)c2O[C@@H]1CN(C)Cc1ccc(-c2ccccc2)cc1	-18	-18
C[C@@H]1CN([C@H](C)CO)C(=O)CCCn2cc(nn2)CO[C@H]1CN(C)C(=O)OCc1ccccc1	-4	7
Cc1ccc(-c2cnc3c(c2)C(=O)N([C@H](C)CO)C[C@H](C)[C@@H](CN(C)C(=O)Cc2cccnc2)O3)cc1	-3	-5
O=C(C1CCC1)N1C[C@@H]2N[C@H](C1)C2c1ccc(/C=C/c2ccccc2)cc1 (stereo partly drawn)	?	-3
COCC#Cc1ccc2c(c1)O[C@@H](CN(C)S(=O)(=O)c1ccc(C)cc1)[C@@H](C)CN([C@@H](C)CO)S2(=O)=O	-26	-15
COc1cccc(-c2ccc(C3[C@H]4CNC[C@@H]3N4C(=O)NC3CCCCC3)cc2)c1 (stereo partly drawn)	-9&1	7&13
CCCNC(=O)C[C@@H]1CC[C@H]2[C@@H](COC[C@H](O)CN2Cc2ccc(Cl)c(Cl)c2)O1	-20	-13
O=C(C[C@H]1C=C[C@@H](NS(=O)(=O)c2ccccc2)[C@@H](CO)O1)N1CCC(Cc2ccccc2)CC1	-23	-24
N#Cc1ccc(-c2ccc([C@@H]3[C@@H](CO)N4CCCCN(C(=O)Nc5ccc(F)cc5)C[C@@H]34)cc2)cc1	?	·
COc1cccc(C#Cc2ccc3c(c2)[C@H]2[C@H](CCN2C(C)=O)[C@H](CO)N3)c1	-9	2
COCC(=O)N1[C@H](C#N)[C@H](c2ccc(-c3cccnc3)cc2)[C@@H]1CO	6	3

For convenience, some entries already given.
SMILES	Vaccinia stage	Vaccinia stage Venus
Cc1ccc(S(=O)(=O)N[C@H]2CC[C@H](CCNC(=O)C3CCCC3)O[C@H]2CO)cc1	-5	4
C[C@@H]1CN([C@@H](C)CO)C(=O)c2cc(NC(=O)Cn3cnnn3)ccc2O[C@@H]1CN(C)C(=O)Nc1ccc(F)cc1	24	10

The listing picks up with the three entries that preceded the break.
SMILES	Vaccinia stage	Vaccinia stage Venus
N#Cc1ccc(-c2ccc([C@@H]3[C@@H](CO)N4CCCCN(C(=O)Nc5ccc(F)cc5)C[C@@H]34)cc2)cc1	?	·
COc1cccc(C#Cc2ccc3c(c2)[C@H]2[C@H](CCN2C(C)=O)[C@H](CO)N3)c1	-9	2
COCC(=O)N1[C@H](C#N)[C@H](c2ccc(-c3cccnc3)cc2)[C@@H]1CO	6	3
O=C(C[C@@H]1C=C[C@H](NC(=O)C2CCOCC2)[C@@H](CO)O1)NCc1ccncc1	2	-5
CN(C)C(=O)C[C@@H]1C[C@@H]2c3cc(NC(=O)Nc4ccccc4F)ccc3O[C@@H]2[C@@H](CO)O1	2	4
Cn1cnc(S(=O)(=O)N[C@H]2C=C[C@@H](CC(=O)NCC3CC3)O[C@@H]2CO)c1	-2	-1
C[C@H]1CN([C@@H](C)CO)C(=O)c2cc(NS(=O)(=O)c3cn(C)cn3)ccc2O[C@@H]1CN(C)C(=O)Nc1ccc2c(c1)OCO2	10	4
CO[C@H]1CN(C)C(=O)c2ccc(NS(=O)(=O)c3ccc(-c4ccccc4)cc3)cc2OC[C@H](C)NC[C@@H]1C	-2	2
CO[C@H]1CN(C)C(=O)c2ccc(NC(=O)c3ccc4c(c3)OCO4)cc2OC[C@H](C)N(CCC(F)(F)F)C[C@H]1C	-30	-19
C[C@@H]1CN([C@H](C)CO)C(=O)c2cc(NC(=O)CCCN(C)C)ccc2O[C@H]1CN(C)Cc1ccc(-c2ccccc2)cc1	-23	-14
C[C@H](CO)N1C[C@H](C)[C@H](CN(C)S(=O)(=O)c2cn(C)cn2)Oc2c(NC(=O)CCCCCC(=O)Nc3ccccc3N)cccc2C1=O	6	16
O=C(C[C@H]1CC[C@H]2[C@@H](COC[C@@H](O)CN2C(=O)Nc2ccc(C(F)(F)F)cc2)O1)NCC1CCCCC1	?	·
C[C@H](CO)N1C[C@H](C)[C@H](CN(C)Cc2cccc(F)c2)Oc2cc(C#CC3CC3)ccc2S1(=O)=O	-7	-9
CCc1csc(N2[C@@H](C#N)[C@H](c3ccc(C#Cc4ccc(F)cc4)cc3)[C@@H]2CO)n1	-20	-29
C/C=C/c1ccc2c(c1)O[C@H](CN(C)C(=O)CN(C)C)[C@@H](C)CN([C@H](C)CO)S2(=O)=O	-1	-4
COc1ccc(NC(=O)Nc2ccc3c(c2)C(=O)N([C@@H](C)CO)C[C@@H](C)[C@H](CN(C)C(=O)CCCN(C)C)OCCCC[C@@H](C)O3)cc1	30	11
COc1ccc(NC(=O)Nc2ccc3c(c2)C(=O)N([C@H](C)CO)C[C@H](C)[C@H](CN(C)C(=O)Nc2ccccc2)OCCCC[C@H](C)O3)cc1	7	3
CC(C)NC(=O)Nc1ccc2c(c1)C(=O)N([C@@H](C)CO)C[C@@H](C)[C@H](CN(C)C(=O)NC1CCCCC1)OCCCC[C@@H](C)O2	12	-6
C[C@@H]1CCCCO[C@@H](CN(C)C(=O)Nc2ccccc2)[C@@H](C)CN([C@H](C)CO)C(=O)c2cc(NC(=O)Nc3ccccc3)ccc2O1	21	8
C[C@H]1CCCCO[C@@H](CN(C)C(=O)Cc2ccccc2)[C@@H](C)CN([C@@H](C)CO)C(=O)c2cc(NS(=O)(=O)c3ccccc3)ccc2O1	?	·
Cc1noc(C)c1S(=O)(=O)N(C)C[C@@H]1Oc2ccc(NS(=O)(=O)c3ccc(F)cc3)cc2CC(=O)N([C@H](C)CO)C[C@H]1C	10	3
O=C(Nc1nccs1)[C@@H]1[C@@H](CO)[C@@H]2Cn3c(cccc3=O)[C@@H]2N1C(=O)C1CC1	11	5
C[C@@H]1CN([C@@H](C)CO)C(=O)c2cccc(NC(=O)C3CC3)c2O[C@@H]1CN(C)C(=O)Nc1ccc(C(F)(F)F)cc1	-13	-7

Looked up one by one from the list above, six records:
SMILES	Vaccinia stage	Vaccinia stage Venus
C[C@H]1CN([C@@H](C)CO)C(=O)c2cc(NS(=O)(=O)c3cn(C)cn3)ccc2O[C@@H]1CN(C)C(=O)Nc1ccc2c(c1)OCO2	10	4
C[C@H](CO)N1C[C@H](C)[C@H](CN(C)Cc2cccc(F)c2)Oc2cc(C#CC3CC3)ccc2S1(=O)=O	-7	-9
C[C@H]1CCCCO[C@@H](CN(C)C(=O)Cc2ccccc2)[C@@H](C)CN([C@@H](C)CO)C(=O)c2cc(NS(=O)(=O)c3ccccc3)ccc2O1	?	·
CN(C)C(=O)C[C@@H]1C[C@@H]2c3cc(NC(=O)Nc4ccccc4F)ccc3O[C@@H]2[C@@H](CO)O1	2	4
COc1ccc(NC(=O)Nc2ccc3c(c2)C(=O)N([C@H](C)CO)C[C@H](C)[C@H](CN(C)C(=O)Nc2ccccc2)OCCCC[C@H](C)O3)cc1	7	3
C[C@@H]1CN([C@H](C)CO)C(=O)c2cc(NC(=O)CCCN(C)C)ccc2O[C@H]1CN(C)Cc1ccc(-c2ccccc2)cc1	-23	-14

Following part:
SMILES	Vaccinia stage	Vaccinia stage Venus
COc1cccc(S(=O)(=O)N(C)C[C@@H]2Oc3ncc(-c4cccc(C(F)(F)F)c4)cc3C(=O)N([C@H](C)CO)C[C@@H]2C)c1	?	·
O=C(C[C@H]1C=C[C@H](NC(=O)NC2CCCC2)[C@H](CO)O1)NCc1ccc(F)cc1	-11	-9
O=S(=O)(c1ccc(F)cc1)N1CCCCN2[C@H](CO)[C@H](c3ccc(C4=CCCCC4)cc3)[C@@H]2C1	-32	-34
COCC(=O)Nc1ccc2c(c1)C(=O)N(C)C[C@H](OC)[C@@H](C)CN(C(=O)c1ccccc1F)[C@@H](C)CO2	14	3
CCCC#Cc1ccc2c(c1)O[C@H](CN(C)Cc1cccnc1)[C@H](C)CN([C@@H](C)CO)S2(=O)=O	?	·
C[C@@H]1CN([C@@H](C)CO)C(=O)c2cc(C3=CCCC3)cnc2O[C@@H]1CN(C)Cc1ccc(F)cc1	-17	-13
C[C@@H]1CN([C@@H](C)CO)C(=O)c2cc(C#CCN(C)C)cnc2O[C@H]1CN(C)S(=O)(=O)c1ccccc1	8	2
COc1ccc(C#Cc2ccc([C@H]3[C@@H](CO)N4CCCCN(C(=O)Nc5ccc(F)cc5)C[C@H]34)cc2)cc1	?	·
CN(C)CCCNC(=O)C[C@H]1C=C[C@H](NC(=O)Cc2cccnc2)[C@@H](CO)O1	-15	-6
COc1cccc(-c2ccc3c(c2)O[C@@H](CN(C)C(=O)C2CC2)[C@@H](C)CN([C@@H](C)CO)S3(=O)=O)c1	15	6
CCC(=O)Nc1ccc2c(c1)OC[C@H](C)N(C(=O)c1ccccn1)C[C@@H](C)[C@@H](OC)CN(C)C2=O	-8	-9
O=C(Nc1ccccc1F)N1CCCCN2[C@H](C1)[C@H](c1ccc(-c3cccnc3)cc1)[C@@H]2CO	11	-4
COc1ccc(C#Cc2cnc3c(c2)C(=O)N([C@@H](C)CO)C[C@H](C)[C@@H](CN(C)C)O3)cc1	-14	-18
O=C(c1ccc(F)cc1)N1CC(=O)N2[C@H](CO)[C@@H](c3ccc(C#CC4CC4)cc3)[C@H]2C1	?	·
